Sa helicase inh: blocks Staphylococcus aureus DNA helicase | inhibition, %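 (tested at about 80 µM)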 | hit rate 0.05% among 120,000 | purified S. aureus helicase, fluorescence unwinding assay; about half of the hits fall short of the stated cut;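 active = both duplicates at 50% or more, or one of them with a favoured structure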;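 note: 0% = mean of negative control wells and 100% = mean of positive control wells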
MgrA-DNA mod: alters Staphylococcus aureus MgrA binding to DNA. fluorescence polarization. inhibition, %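 (about 10 µg/mL by stock and volumes)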. hit rate 0.13% among 84,000. AID 602314;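 active = above 50% in either of two replicates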;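 note: 0% = protein plus DNA without compound and 100% = DNA alone without protein; higher means less MgrA bound to DNA so lower polarization; one replicate is shown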
Active calls of the source: *.

O=C(Nc1cccc2c1C(=O)c1ccccc1C2=O)c1ccc(S(=O)(=O)N2CCCC2)cc1 was read as MgrA-DNA mod 2.8.
For CCN(CC)C(C)C#Cc1ccccc1 (stereo not drawn) the results were Sa helicase inh 11 and MgrA-DNA mod -1.4.
For O=c1c(O)c(-c2ccc(O)cc2O)oc2cc(O)cc(O)c12 the results were MgrA-DNA mod 5.7.
`CC(=O)Nc1ccc(S(=O)(=O)c2ccc(N)cc2)cc1N` gave Sa helicase inh 16.
Screening C=CCN1C(=O)/C(=C\c2ccc(C(=O)O)cc2)S/C1=N\c1nnc(CC)s1 returned Sa helicase inh -2 and MgrA-DNA mod 7.9.
Cn1ncc(C(=O)CC#N)c1C(F)(F)F was read as MgrA-DNA mod -2.8.
Screening CN1/C(=C\C=N\NC(=O)C2COc3ccccc3O2)C(C)(C)c2ccccc21 (stereo not drawn) returned Sa helicase inh -6.
For N#Cc1c2c(c(Nc3ccc(O)cc3)n3c1nc1ccccc13)CCC2 the results were Sa helicase inh 2 and MgrA-DNA mod -0.6.
`CC(C)c1ccccc1NC(=O)COC(=O)c1cc(Cl)cc(Cl)c1` gave Sa helicase inh -24 and MgrA-DNA mod 1.5.
Screening O=S(=O)(Nc1ccc(O)c(Sc2nc3ccccc3s2)c1)c1cccs1 returned Sa helicase inh -16.
Oc1cccc(/C=N/N=C/c2cccc(O)c2O)c1O was read as Sa helicase inh -5 and MgrA-DNA mod 3.0.
CSc1nc2[nH]ncc2c(=O)[nH]1 was read as Sa helicase inh 1.
O=C(CCCc1ccccc1)Nc1scc2c(=O)oc3ccccc3c12 was read as Sa helicase inh -2 and MgrA-DNA mod 13.
`CC1CCN(CC(=O)Nc2ccc3c(c2)OCO3)CC1` gave Sa helicase inh 10.
Screening Cc1ccc(SC(=O)c2ccco2)cc1 returned Sa helicase inh 20 and MgrA-DNA mod 3.8.
For O=C(NCCC1=CCCCC1)C(c1ccccc1)c1ccccc1 the results were Sa helicase inh 4 and MgrA-DNA mod -1.4.
`c1ccc(CNc2nc3ccccc3[nH]2)cc1` gave Sa helicase inh -6.
Screening Cc1[nH]n(-c2ccccc2)c(=O)c1C1=NCCCCC1 returned Sa helicase inh 5.
For CN1CCCN(C(=O)c2ccc(F)c(S(=O)(=O)N3CCOCC3)c2)c2nc3ccccc3nc21 the results were Sa helicase inh 4.
Screening CCC(C)N(C(=O)c1cc(Cl)ccc1OC)C(C)CC (stereo not drawn) returned Sa helicase inh 8 and MgrA-DNA mod 1.1.

Four compounds drawn at random from the list so far:
For N#Cc1c2c(c(Nc3ccc(O)cc3)n3c1nc1ccccc13)CCC2 the results were Sa helicase inh 2 and MgrA-DNA mod -0.6.
For O=c1c(O)c(-c2ccc(O)cc2O)oc2cc(O)cc(O)c12 the results were MgrA-DNA mod 5.7.
`CC(=O)Nc1ccc(S(=O)(=O)c2ccc(N)cc2)cc1N` gave Sa helicase inh 16.
Screening CCC(C)N(C(=O)c1cc(Cl)ccc1OC)C(C)CC (stereo not drawn) returned Sa helicase inh 8 and MgrA-DNA mod 1.1.

Additional structures.
For O=C(COc1ccccc1)N1CCN=C1c1ccccc1 the results were Sa helicase inh 11 and MgrA-DNA mod -0.8.
Screening CC(C)n1c(SCCC(=O)O)nc2ccccc21 returned Sa helicase inh 7 and MgrA-DNA mod -7.8.
COc1ccccc1N(CCC#N)C(=O)c1cncc(Br)c1 was read as Sa helicase inh 10 and MgrA-DNA mod -2.4.
Screening NC(=O)CSc1nc2cc3c(cc2c(=O)n1CCCC(=O)NCc1ccc2c(c1)OCO2)OCO3 returned Sa helicase inh 2 and MgrA-DNA mod 2.5.
`COc1ccc(NC(=O)CN2C(=O)C(c3ccccc3)=NC23CCCC3)cc1` gave Sa helicase inh -8.
CC1=CC(=O)C(CCOCCC2=CC(=O)C(C)=CC2=O)=CC1=O was read as Sa helicase inh 30.
CC(NC(=O)c1ccncc1)c1ccncc1 (stereo not drawn) was read as Sa helicase inh -3 and MgrA-DNA mod -1.1.
COc1ccc(S(=O)(=O)N(CC(=O)Nc2c(C)n(C)n(-c3ccccc3)c2=O)c2ccc(C)cc2)cc1OC was read as MgrA-DNA mod 4.0.
Cc1cc(C(C)(C)C)cc(S(=O)(=O)Nc2ccc(C(=O)N3CCC(C)CC3)cc2)c1C was read as Sa helicase inh 6 and MgrA-DNA mod -8.2.
N#Cc1c(NC(=O)c2ccc3c(c2)OCO3)sc2c1CCC2 was read as Sa helicase inh 13 and MgrA-DNA mod 5.9.
Screening COC(=O)c1ccc(/C=N/NC(=S)NCc2ccco2)cc1 returned Sa helicase inh -9.
Screening NS(=O)(=O)c1ccc(CCNS(=O)(=O)c2ccc3[nH]cc(C(=O)O)c(=O)c3c2)cc1 returned Sa helicase inh 13.
Screening Cc1cc(S(=O)(=O)/N=C(\N)c2cccnc2)cc(C)c1F returned MgrA-DNA mod 2.5.
Screening CCOC(=O)c1cnc2cccc[n+]2c1Cl returned Sa helicase inh 1 and MgrA-DNA mod 1.1.
Screening O=C1CN(S(=O)(=O)c2ccc(-c3ccc(=O)[nH]n3)s2)c2ccccc2N1 returned Sa helicase inh 14.
For COc1ccccc1CNC(=O)c1ccccc1SC the results were Sa helicase inh 11 and MgrA-DNA mod 7.5.
Screening Cc1nn(C(C)C(=O)NC2CCCCCC2)c(=O)c2cc3occc3n12 (stereo not drawn) returned Sa helicase inh 14 and MgrA-DNA mod -1.4.
`Oc1ccccc1-c1nnc2n1CCC2` gave Sa helicase inh 6 and MgrA-DNA mod -2.2.
Screening O=C1CCCc2c1cnn2-c1ccccc1 returned Sa helicase inh -10 and MgrA-DNA mod 0.5.
O=C(CCCSc1nnc(-c2cccs2)n1Cc1ccccc1)N1CCOCC1 was read as Sa helicase inh -2.
For O=C(Nc1ccc(F)cc1F)C12CC3CC(CC(C3)C1)C2 the results were MgrA-DNA mod -2.0.
CCn1c(N)c(C(=O)N2CCCCC2)sc1=S was read as Sa helicase inh 3 and MgrA-DNA mod 14.
Screening CCOC(=O)c1ccc2c(c1)[nH]c(=O)c(=O)n2CC returned Sa helicase inh 16.
Screening O=C1C=C(NC2CCCC2)CC(c2ccccc2)C1 (stereo not drawn) returned Sa helicase inh 11 and MgrA-DNA mod 0.2.
COc1ccc(-c2nnc(NC(=O)c3ccc(S(=O)(=O)N4CCC(C)CC4)cc3)o2)c(OC)c1 was read as Sa helicase inh 4 and MgrA-DNA mod 2.8.
Screening C=CCn1c(CO)nc2ccccc21 returned Sa helicase inh -10.
CC(C)(C)C(=O)Nc1ccccc1C(=O)Nc1cccnc1 was read as Sa helicase inh 5 and MgrA-DNA mod 3.8.
Screening Cc1ccc(/C=C2\SC(=S)N(CCC(=O)OCCN(C)C)C2=O)cc1 returned MgrA-DNA mod 7.1.
`O=C(O)c1c(-c2ccccc2)c(-c2ccccc2)n[nH]c1=O` gave Sa helicase inh 33.
For Cc1cc2c(cc1C)CSC(c1cccs1)SC2 the results were MgrA-DNA mod 1.2.
Screening S=c1nc(SCCOc2ccccc2)[nH]c2ccccc12 returned Sa helicase inh 5 and MgrA-DNA mod 2.7.
Screening COc1ccc(C(=O)CSc2ccc3nnc(-c4ccccn4)n3n2)cc1 returned Sa helicase inh 6.
For CC(N/C=C1/CCCCC1=O)C1CC2CCC1C2 (stereo not drawn) the results were Sa helicase inh 4 and MgrA-DNA mod 0.9.
For CC1SC(=S)NN1c1ccccc1 (stereo not drawn) the results were Sa helicase inh 3 and MgrA-DNA mod 3.5.
`CCn1c(SCC(=O)c2cc(C)n(-c3ncn[nH]3)c2C)nc2cc(S(N)(=O)=O)ccc21` gave Sa helicase inh 11.
Screening COC(=O)C(C)Sc1nc2c(cnn2-c2ccccc2)c(=O)[nH]1 (stereo not drawn) returned Sa helicase inh -19.
For CCN(CC)C(=S)Oc1ccc(Cl)cc1Cl the results were MgrA-DNA mod -1.7.
Nc1cc(N)nc(SCc2ccccc2)n1 was read as Sa helicase inh 14 and MgrA-DNA mod -2.6.
Screening N#CCSc1nsc2sc(C#N)c(N)c12 returned Sa helicase inh 12.
For COc1ccc(C(=O)Cc2ccccc2)cc1 the results were Sa helicase inh -5.

An excerpt from the list above, for reference:
For CCN(CC)C(=S)Oc1ccc(Cl)cc1Cl the results were MgrA-DNA mod -1.7.
Nc1cc(N)nc(SCc2ccccc2)n1 was read as Sa helicase inh 14 and MgrA-DNA mod -2.6.
Screening N#CCSc1nsc2sc(C#N)c(N)c12 returned Sa helicase inh 12.
For COc1ccc(C(=O)Cc2ccccc2)cc1 the results were Sa helicase inh -5.

The main list resumes with the 3 entries that preceded the break.
Nc1cc(N)nc(SCc2ccccc2)n1 was read as Sa helicase inh 14 and MgrA-DNA mod -2.6.
Screening N#CCSc1nsc2sc(C#N)c(N)c12 returned Sa helicase inh 12.
For COc1ccc(C(=O)Cc2ccccc2)cc1 the results were Sa helicase inh -5.
O=S1(=O)CCC(N2CCN(c3nc(C(F)(F)F)nc4ccccc34)CC2)C1 (stereo not drawn) was read as Sa helicase inh -6.
`COc1ccc(-c2nc3c4ccccc4ccn3c2C(C)=O)cc1` gave MgrA-DNA mod -2.1.
Screening CCOC(=O)c1cccc(NC(=O)n2ncc3c(C)cccc32)c1 returned Sa helicase inh 7.
`CC1CCN(C(=O)c2cccc(Cl)c2)CC1` gave Sa helicase inh -3 and MgrA-DNA mod 0.9.
`Cn1c(=O)c2c(nc(NCc3ccco3)n2Cc2ccccc2Br)n(C)c1=O` gave MgrA-DNA mod 0.2.
`O=C(O)COc1ccccc1/C=c1\sc2nc3ccccc3n2c1=O` gave Sa helicase inh -1.
For CC1CCCCN1CC(O)COCc1ccccc1 (stereo not drawn) the results were Sa helicase inh 6 and MgrA-DNA mod 0.0.
Screening CN1CCN(CC(O)c2ccccc2)CC1 (stereo not drawn) returned Sa helicase inh 11.
CC1CCCC(NC(=O)CCn2c(=O)oc3ccccc32)C1C (stereo not drawn) was read as Sa helicase inh 22.
Screening CCCc1ccc(Oc2ccc(NC(=O)C3CC3C(=O)O)cn2)c(OC)c1 (stereo not drawn) returned MgrA-DNA mod 1.6.
For O=C(Nc1cc(N2CCOCC2)ncn1)c1ccccc1 the results were Sa helicase inh -20.
`O=S(=O)(Nc1ncnc2sccc12)c1cccc(F)c1` gave Sa helicase inh -30.
For O=C(CCN1c2ccccc2Sc2ccccc21)OC1CCOC1=O (stereo not drawn) the results were Sa helicase inh 1.
Screening CCO/C=C1/C(=O)N(c2ccc(Cl)cn2)C(=O)c2ccccc21 returned Sa helicase inh -22.
`CC1CCN(c2nc(N3CCC(C)CC3)nc(N3CCC(C)CC3)n2)CC1` gave Sa helicase inh 15 and MgrA-DNA mod -1.9.
`O=C(CC(c1ccccc1)c1cc(Br)ccc1O)N1CCCC1` (stereo not drawn) gave Sa helicase inh 1 and MgrA-DNA mod 1.2.
For COC(=O)c1cnc(Sc2ccccn2)nc1C(F)(F)F the results were MgrA-DNA mod -1.2.
`Cc1ccccc1OCC(=O)NC(c1ccccc1)c1c(O)ccc2ccccc12` (stereo not drawn) gave Sa helicase inh 5 and MgrA-DNA mod 0.6.
`Cc1[nH]n(-c2ccccc2)c(=O)c1C(=O)Nc1ccccc1` gave Sa helicase inh 4 and MgrA-DNA mod -1.4.
`O=C(O)c1ccc(N2CCCS2(=O)=O)cc1` gave Sa helicase inh 1 and MgrA-DNA mod -3.2.
Screening Cn1ccc(NC(=O)Nc2ccccc2)n1 returned MgrA-DNA mod -0.9.
`Cc1cccc(NC(=O)CCSc2ccccc2)c1C` gave Sa helicase inh -6.
CSC1=N/C(=C/c2ccco2)C(=O)N1 was read as MgrA-DNA mod 11.
Screening O=C(O)c1cc2c3c(c1)C1C=CCC1C(c1ccc(Br)cc1)N3CC1CC=CC21 (stereo not drawn) returned MgrA-DNA mod 13.
`CC(NC(=O)C1CCCCN1S(=O)(=O)c1cccc2nsnc12)C12CC3CC(CC(C3)C1)C2` (stereo not drawn) gave Sa helicase inh -32.
Screening CS(=O)(=O)N1CCC(C(=O)NC2CCCC2)CC1 returned Sa helicase inh 2 and MgrA-DNA mod 0.4.
For CC1=NN(c2ccc(C)c(C)c2)C(=O)/C1=C/c1ccc2c(c1)n(C)c(=O)n2C the results were Sa helicase inh 12 and MgrA-DNA mod 1.4.
For Cc1c(/C=C(\C#N)S(=O)(=O)C(C)(C)C)sc2ccccc12 the results were MgrA-DNA mod -2.9.
For COc1ccc(-n2nnnc2SCSc2nnnn2-c2ccc(OC)cc2)cc1 the results were Sa helicase inh 8 and MgrA-DNA mod -0.2.
CC(=O)Nc1ccc(/C=N/NC(=O)c2ccccc2-n2cccc2)cc1 was read as Sa helicase inh 16.
`NC1CCN(c2nc(-c3ccc(F)cc3)cs2)CC1` gave Sa helicase inh -33.
Screening CCN(CC(=O)Nc1cccc(OC)c1)C(=O)Cn1c(=O)cnc2ccccc21 returned Sa helicase inh -8.
For CCCNS(=O)(=O)C1CCS(=O)(=O)C1 (stereo not drawn) the results were Sa helicase inh 14.
`COC(=O)c1ccccc1NC(=S)NC(=O)/C=C/c1ccco1` gave Sa helicase inh 13 and MgrA-DNA mod 44.
`O=C(NCc1ccco1)N(c1ccccc1)c1ccccc1` gave Sa helicase inh -2.
Screening CC(C)(C)NC(=O)C1CC2CCCC(C1)C2=O (stereo not drawn) returned Sa helicase inh -14 and MgrA-DNA mod 1.8.
`CS(=O)C1CCCCC1(O)CSc1nc(-c2cccs2)cc(-c2ccccc2)c1C#N` (stereo not drawn) gave Sa helicase inh 9 and MgrA-DNA mod 0.9.
`CC1SCC(NC(=O)c2ccccc2Cl)CS1` (stereo not drawn) gave MgrA-DNA mod 1.1.
Screening CC1(C)CC(NCc2ccccc2)=CC(=C(C#N)C#N)C1 returned Sa helicase inh -14 and MgrA-DNA mod 0.5.
`CC(=O)Nc1nonc1Nc1cc(C)nn1-c1ccccc1` gave Sa helicase inh -1 and MgrA-DNA mod -1.2.
`CC(=O)N1C(=O)C2(N=C(N)NC(Nc3cccc(C(F)(F)F)c3)=N2)c2ccccc21` (stereo not drawn) gave Sa helicase inh -10 and MgrA-DNA mod 2.5.

The list is partial; count on the stated rates, not on these rows.
